Bioassay records from PubChem.
RmlC RmlD mix = RmlC and RmlD coupled enzyme inhibitors, primary screen, biochemical, 384-well, compound mixtures, retest | RmlC/RmlD coupled enzyme inhibition, 384-well mixture HTS | inhibition, % at 5.5 µM | actives 0.39% (n = 110,000); in the data active means inhibition above about 30%, passing the limit was not always enough; only retested compounds are shown here; further: strong numbers were not always called active
RmlC RmlD mix retest = second read-out of RmlC RmlD mix, no call of its own (marks repeat the call); inhibition, %; measured here: mean retest inhibition;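 single compounds in two wells; values far above 100% likely come from compound fluorescence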
Starred values were filed as active, the others as inactive; i = inactive; . = not tested or not shown; + = active, no number. Only part of the results is shown (hit frequency here may not be typical).

A first look (2 entries):
Screens in order – RmlC RmlD mix	RmlC RmlD mix retest
COC(=O)C1=C(C(=O)OC)SC2(S1)C(C(=O)OC)=C(C(=O)OC)SC1=C2c2cc(C)ccc2NC1(C)C
 : 99	-7
O=C(N/N=C/c1cccc(Oc2ccccc2)c1)c1ccccc1Br
 : 39	-3

All compounds of this part, from the start:
Screens in order – RmlC RmlD mix	RmlC RmlD mix retest
COC(=O)C1=C(C(=O)OC)SC2(S1)C(C(=O)OC)=C(C(=O)OC)SC1=C2c2cc(C)ccc2NC1(C)C
 : 99	-7
O=C(N/N=C/c1cccc(Oc2ccccc2)c1)c1ccccc1Br
 : 39	-3
Cc1c(C(=O)N2CCC3(CC2)OCCO3)oc2ccccc12
 : 73	-6
CCCCCn1ccc(=O)c2c(C(F)(F)F)nccc21
 : 36	6
CCOC(=O)c1nn(-c2ccc(Cl)cc2)c2nc(CC)c(C#N)c(=O)n12
 : 85*	185*
N#Cc1cc(Oc2ccc(Cl)cc2)c(N2CCOCC2)cc1C#N
 : 79	-14
O=C(Nc1cccnc1)c1coc(=O)c2ccccc12
 : 61*	81*
CCOc1ccc(NC(=O)C2CCCN(S(=O)(=O)c3cccc4nsnc34)C2)cc1 (stereo not drawn)
 : 48	-6
c1ccc(N2CCN(Cc3ccsc3)CC2)nc1
 : 124	-10
CC(Oc1ccccc1)C(=O)N1CCC2(CC1)Oc1ccc(F)cc1C(=O)C21CC(c2ccc(Cl)cc2)=NO1 (stereo not drawn)
 : 53	0
CCC(C)Nc1nc(SC(C(C)=O)C(C)=O)nc(N(C)C)n1 (stereo not drawn)
 : 61	-2
COC(=O)c1cc(Cl)c(NC(=O)/C=C/c2ccc(Cl)cc2Cl)cc1OC
 : 62*	77*
CN(CC(=O)Nc1ccc(F)c(Cl)c1)S(=O)(=O)c1cccc2nsnc12
 : 52	5
O=S(=O)(Nc1ccc(-c2nc3cccnc3s2)cc1)c1cccs1
 : 173	-461
COc1ccc(CCC(=O)Nc2nc3ccccc3[nH]2)cc1OC
 : 40	-8
CCC(=NCc1ccco1)c1c(C(F)(F)F)[nH]n(-c2nc3ccccc3s2)c1=O
 : 38	-9
CSc1[nH]c(=O)c(C(=O)O)cc1C#N
 : 49	9
COc1ccccc1-n1c(SCC(=O)Nc2ccc(C)cc2)nc(O)cc1=O
 : 37	-3
CN(C)S(=O)(=O)N(CC(=O)Nc1ccccc1F)c1ccccc1
 : 61	1
CC(C)Cc1nc2oc3c(NCc4cccnc4)ncnc3c2c2c1CCC2
 : 131	25
COc1cccc(NC(=O)C23CCC(C)(C(=O)O2)C3(C)C)c1 (stereo not drawn)
 : 97	-5
CCn1c(SCC(=O)Nc2nc(C)cs2)nnc1-c1ccco1
 : 48	-11
CC(C)CC(NC(=O)C1CCCCC1)C(=O)N1CCC2(CC1)OCCO2 (stereo not drawn)
 : 38	-10
O=S(=O)(c1ccc(N2CCC(c3ccc(Cl)cc3)=N2)cc1)N(CCO)CCO
 : 40*	119*
CCOC(=O)CN1C=C(c2ccc3ccccc3n2)C(C[N+](=O)[O-])c2ccccc21 (stereo not drawn)
 : 47*	.
O=C(NCCc1c[nH]c2ccccc12)c1cc(S(=O)(=O)N2CCCCC2)ccc1N1CCOCC1
 : 84	3
N#Cc1c(N)nc2c3c(sc(=N)c2c1N)NC(=O)CC3c1ccccc1Cl (stereo not drawn)
 : 108	-5
c1ccc2c(c1)ncn2CCCCOc1ccc2c(c1)CCC2
 : 41	-14
O=C1CN(C(=O)c2cnccn2)c2ccccc2N1
 : 39	4
Cc1c(NC(=O)C(C)N2CC(C)OC(C)C2)c(=O)n(-c2ccccc2)n1C (stereo not drawn)
 : 85	2

Another view of some results above.
O=S(=O)(c1ccc(N2CCC(c3ccc(Cl)cc3)=N2)cc1)N(CCO)CCO
  RmlC RmlD mix = 40*	RmlC RmlD mix retest = 119*

CCCCCn1ccc(=O)c2c(C(F)(F)F)nccc21
  RmlC RmlD mix = 36	RmlC RmlD mix retest = 6

CCn1c(SCC(=O)Nc2nc(C)cs2)nnc1-c1ccco1
  RmlC RmlD mix = 48	RmlC RmlD mix retest = -11

CCC(C)Nc1nc(SC(C(C)=O)C(C)=O)nc(N(C)C)n1 (stereo not drawn)
  RmlC RmlD mix = 61	RmlC RmlD mix retest = -2

Further records follow:
Screens in order – RmlC RmlD mix	RmlC RmlD mix retest
CCOC(=O)c1cnn2c(C)cc(-c3ccccc3)nc12
 : 102	23
COc1ccc(-c2nc(C#N)c(N3CCC(C(N)=O)CC3)o2)cc1
 : 50*	56*
COc1cccc(-c2csc(NC(C)=O)n2)c1
 : 45	3
CCCSc1nc(SCC(=O)NCc2ccccc2)c2c3c(sc2n1)COC(C)(CC)C3 (stereo not drawn)
 : 55	-12
CC(=O)Oc1ccc2c(C)c(CC(C)O)c(=O)oc2c1 (stereo not drawn)
 : 100*	151*
O=C(NCCC1=CCCCC1)C1COc2ccccc2O1 (stereo not drawn)
 : 36	4
COc1ccccc1-n1cnnc1SCC(=O)c1cc(C)n(Cc2cccs2)c1C
 : 33	-6
CC(C)c1cc(C(=O)NC2CCCCC2)no1
 : 48	3
CN(C)CCNC(=O)c1coc(=O)c(Br)c1
 : 62*	97*
N#Cc1c(C(F)(F)F)cc(-c2ccccc2Cl)[nH]c1=O
 : 59	6
CN1CCN(C(=O)CCCOc2cc(=O)n(C)c3ccccc23)CC1
 : 126	10
COc1cccc(CN2CCSCC2)c1
 : 138	-4
COc1ccc(C(c2sc3nc(C)nn3c2O)N2CCC(C(N)=O)CC2)cc1OC (stereo not drawn)
 : 89	-6
Cc1cc(N2CCOCC2)nc2ccc(NC(=O)CCC(=O)N3CCC(C)CC3)cc12
 : 79	-16
CCn1c(/C=N/n2cnnc2)nc2ccccc21
 : 73*	110*
COc1ccccc1C(c1nnnn1Cc1ccccc1)N1CCN(c2nc3ccccc3s2)CC1 (stereo not drawn)
 : 57	-10
COc1ccc(C2=NOC(C(=O)NC3CCCCC3)C2)cc1OC (stereo not drawn)
 : 41	3
Cc1ccc2nc3c(cc(C(=O)NCC4CCCO4)n3C)c(=O)n2c1 (stereo not drawn)
 : 103*	91*
COc1ccc(C2OC34CCCCC3C(C#N)(C#N)C2(C#N)C(=N)O4)cc1 (stereo not drawn)
 : 64*	108*
C=CCn1c(CCNC(=O)c2cccs2)nnc1SCC(=O)c1ccc(Br)cc1
 : 72	-3
CCOC(=O)CSc1nc(N2CCOCC2)c2c(c1C#N)CC(C)(C)N(C)C2
 : 58	6
CCCCCCCCCn1cc(C(C)=O)c(=O)[nH]c1=O
 : 47	-3
O=C(c1ccc(Br)s1)N1CCCC1
 : 46	2
COc1cc(C(C#N)N2CCOCC2)ccc1O (stereo not drawn)
 : 46	-8
COc1ccc(-c2cc(C)nc3nc(N)nn23)cc1
 : 30	19
O=C(/C=C\c1ccccc1)Nc1nccs1
 : 52	3
NS(=O)(=O)c1ccc(CCNC(=O)c2cccnc2)cc1
 : 36	1
Clc1ccc(-c2nc(N3CCCCC3)nc3ccccc23)cc1
 : 36	-35
Cc1cc(OC(=O)c2ccc(Cl)cc2Cl)nc(C)n1
 : 58	-6
O=C(COc1ccc(Cl)cc1)NCc1nnc(SCC(=O)N2CCCCC2)o1
 : 51	0
O=C(Cn1cnc2scc(-c3ccccc3)c2c1=O)N1CCOCC1
 : 31	-4
O=C(Nc1ccon1)c1ccccc1Cl
 : 105	-8
Cc1cc(CSc2ccccc2)ccc1NC(=O)c1cccc([N+](=O)[O-])c1
 : i	8
COc1ccc(N2C(=O)C(CC(=O)O)S/C2=C\C(C)=O)cc1 (stereo not drawn)
 : i	-9
Cc1cc(=O)oc2cc3c(cc12)OCCO3
 : 37	17
C=CCN1CCc2c(cc(O)c(O)c2Br)[C@@H](c2ccccc2)C1
 : 57	-7
CCC(Sc1nc2c(c(=O)[nH]1)CCC2)C(=O)Nc1cccc(OC)c1 (stereo not drawn)
 : 53	0
COc1ccccc1NC(=O)N1CCCC(C(=O)Nc2cccc(C)c2C)C1 (stereo not drawn)
 : 56	-2
COc1ccc(Cc2nnc(SCC(=O)NCCc3ccccc3)o2)cc1
 : 40	1
C=CCOc1ccc(/C(O)=C2/C(=O)C(=O)N(CCCn3ccnc3)C2c2cccs2)cc1 (stereo not drawn)
 : 85	-6
CC(=O)Nc1ccc(NS(=O)(=O)c2ccc3ccccc3c2)cc1
 : 33	-13
CC(=O)C1=C(O)C(=O)N(c2nnn(C)n2)C1c1cccs1 (stereo not drawn)
 : 38	12
CCCCOC(=O)c1ccc(NC(=O)c2ccc(F)cc2F)cc1
 : 77	-5
Nc1nncn1C(=O)c1cccs1
 : 42	-7
CCCOc1ccc(N2C(=O)CC(N(Cc3ccc(S(N)(=O)=O)cc3)C(=O)CC)C2=O)cc1 (stereo not drawn)
 : 49	0

A different layout for two compounds above:
CC(=O)Nc1ccc(NS(=O)(=O)c2ccc3ccccc3c2)cc1
  RmlC RmlD mix: 33; RmlC RmlD mix retest: -13

CC(=O)C1=C(O)C(=O)N(c2nnn(C)n2)C1c1cccs1 (stereo not drawn)
  RmlC RmlD mix: 38; RmlC RmlD mix retest: 12

New compounds follow:
Screens in order – RmlC RmlD mix	RmlC RmlD mix retest
O=C1CCCCC1Sc1nnc(Cc2cccs2)n1CCc1ccccc1 (stereo not drawn)
 : 32	-14
O=C(C1CCC(CNc2c(N3CCCCC3)c(=O)c2=O)CC1)N1CCc2ccccc2C1 (stereo not drawn)
 : 75	-15
O=C1C(Nc2cccc(O)c2)=C(N2CCCCC2)C(=O)c2ccccc21
 : 39	0
O=C(Nc1ccc(OCC(=O)N2CCC(Cc3ccccc3)CC2)cc1)c1ccco1
 : 30	-12
Cc1ccc(SCCC(=O)N2CCOCC2)cc1
 : 43	-1
CCn1c(=S)[nH]c2cc(C(=O)OC)ccc2c1=O
 : 38	-1
CCCn1c(=O)[nH]c(=O)c2c1nc(-c1ccc(OC(F)F)c(OC)c1)n2CCOC
 : 149	6
CC(C)OCCCNc1nc2c([nH]1)c(=O)n(C)c(=O)n2C
 : 37	-7
Cc1cccn2c(=O)c(C=Nc3ccccc3)c(NCCO)nc12
 : 37*	57*
Nc1ccc2nc(-c3ccc(N)c(Cl)c3)[nH]c2c1
 : 40*	115*
COc1cc(NC(=O)c2cnn3c(C)cc(C)nc23)c(OC)cc1Cl
 : 32	-8
CC(=O)c1cccc(NC(=O)C2CCCN2S(=O)(=O)c2cccc3nsnc23)c1 (stereo not drawn)
 : 33	-1
COc1ccccc1-c1nnc(N(C)C(=O)C2CCCO2)s1 (stereo not drawn)
 : 37*	39*
Cc1occc1-c1nnc(SCC(=O)N2CCOCC2)n1CCc1ccccc1
 : 53	-3
O=C(OCN1C(=O)c2ccccc2C1=O)c1ccccc1
 : 122	-5
CCC(NC(=O)OC(C)(C)C)C(=O)Oc1ccc2c3c(c(=O)oc2c1)CCC3 (stereo not drawn)
 : +	.
CCCc1nnc(NC(=O)CCC(=O)N2CCN(c3ccccn3)CC2)s1
 : 61	4
C[C@@H]1CCC[C@]2(O[C@@H](CCO)C[C@H](O)[C@H]2O)O1
 : i	-15
Nc1ccc(-c2nc3c(Cl)cc(N)cc3[nH]2)cc1
 : 50*	112*
COc1ccc(/C=N/NC(N)=S)cc1OC(=O)c1ccccc1
 : i	2
Cc1cccc(-c2nc(CS(=O)CC(=O)N3CCc4ccccc4C3)c(C)o2)c1 (stereo not drawn)
 : 38	-5
Cc1nc2nc(COc3ccccc3)[nH]n2c(=O)c1C
 : 34	-10
C=CCNc1nnc(-c2ccncc2)s1
 : 36	28
Cc1ccc2cc(C(c3nnnn3C3CCCC3)N3CCN(c4ccc(F)cc4)CC3)c(=O)[nH]c2c1 (stereo not drawn)
 : 75	-5
Cc1nnc(NC2=NCCCCC2)o1
 : 47	-3
Cn1c(-c2ccc3nc(N)sc3c2)nc2cc(N)ccc21
 : 33	22
CCOC(=O)C1CCCN(c2ncnc3c2[nH]c2cccc(OC)c23)C1 (stereo not drawn)
 : 39	27
CC(NC(=O)c1ccc(F)cc1)c1ccc2c(c1)CCCC2 (stereo not drawn)
 : 32	2
Cn1c(SCC(=O)c2ccccc2)nnc1C1CC1
 : 107	-11
COc1ccccc1N1CCN(C(=O)CSc2nc(-c3ccccc3)cc(=O)[nH]2)CC1
 : 32	10
C=CCn1c(SCC(=O)N2CC(=O)Nc3ccccc32)nc2scc(-c3ccccc3)c2c1=O
 : 32	-10
O=C1CSC(=NC2CCCCC2)N1
 : 30	-13
COCC(=O)N(C)c1nnc(-c2ccccn2)s1
 : 111*	170*
CN(C(=O)c1cccnc1)c1nnc(-c2ccccn2)s1
 : 42*	68*
CCN1C2=NCCCN2c2cc(C)c(C)cc21
 : i	3
Cc1nn2c(-n3ccnc3)c3c(nc2c1-c1ccccc1)CCC3
 : 55	-6
Cc1nc2ccccc2cc1OCc1ccc(Cl)cc1
 : 47	-5
O=C(ONC1=NCCCCC1)c1ccc(Cl)cc1
 : 31	-6
CC[C@@]1(O)C(=O)OCc2c1cc1n(c2=O)Cc2cc3c(CN(C)C)c(O)ccc3nc2-1
 : 38*	92*
c1csc(CNCCN2CCOCC2)c1
 : 104	-5
CCn1c2ccccc2c2nnc(SCCCn3c(=O)[nH]c4ccccc43)nc21
 : 82*	98*
COC(=O)c1cc2c(C)nn(-c3ccccc3)c2s1
 : 64	-19
Nc1nc2ccc(O)cc2s1
 : 91	9
CS(=O)(=O)N(CC(=O)NCc1ccncc1)c1cc(Cl)cc(Cl)c1
 : 103	-5
O=S(=O)(c1ccc(Cl)cc1)N1CCN(c2ccc(N3CCOCC3)nn2)CC1
 : 71	14
Fc1cc(F)c(F)c(SCCc2ccncc2)c1F
 : 55	6
N#Cc1ccccc1NC(=O)Nc1cccc(Cl)c1
 : 44*	36*
O=S(=O)(NCCc1ccccc1F)c1cccc(S(=O)(=O)N2CCOCC2)c1
 : 83	-3
O=C(NC1=NCCS1)c1ccc(-c2ccc(Cl)cc2)o1
 : 35	-76
Cc1ccc(S(=O)(=O)c2c(N)n(CCCO)c3nc4ccccc4nc23)cc1
 : 51	-14
NC(=O)C1(N2CCCCC2)CCN(c2nc(-c3ccc(Br)cc3)cs2)CC1
 : 30	-5
